Screening data as filed in PubChem.
Choline anaer gr = growth inhibitors of anaerobic choline-fed gram-negatives, minimal medium, absorbance; Gram-negative bacterium anaerobic choline minimal medium; stronger effect = lower value; many inactives read as strong as hits in the columns shown; 55,000 tested, 0.2% active; calls only;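 active = growth z-score on choline under -2 at 7 or 20 h with little or no fall on glycerol, limits in tiers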;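 also: stock transfer was 300 nL into about 50 µL; the organism is E. coli; final concentration not given here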
Choline anaer gr early = also measured in Choline anaer gr; calls as there; z-score; measured here: choline growth z-score, timepoint 1;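 score of optical density at 7 h as mean of two plates; lower means less growth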
Numbers without * were called inactive; i = inactive; & = joins results of further samples.

Preview:
SMILES	Choline anaer gr	Choline anaer gr early
CCC(C)C(N)C1=NC(C(=O)N[C@@H](CC(C)C)C(=O)N[C@H](CCC(=O)O)C(=O)N[C@H](C(=O)N[C@H]2CCCCNC(=O)[C@H](CC(N)=O)NC(=O)[C@@H](CC(=O)O)NC(=O)[C@H](Cc3cnc[nH]3)NC(=O)[C@@H](Cc3ccccc3)NC(=O)[C@H]([C@@H](C)CC)NC(=O)[C@@H](CCCN)NC2=O)[C@@H](C)CC)CS1 (stereo partly specified)	i	0.82
CCOC(=O)c1c(-c2ccc(C)cc2)csc1NC(=O)c1snnc1C	i	0.3

The list itself, repeating the preview:
SMILES	Choline anaer gr	Choline anaer gr early
CCC(C)C(N)C1=NC(C(=O)N[C@@H](CC(C)C)C(=O)N[C@H](CCC(=O)O)C(=O)N[C@H](C(=O)N[C@H]2CCCCNC(=O)[C@H](CC(N)=O)NC(=O)[C@@H](CC(=O)O)NC(=O)[C@H](Cc3cnc[nH]3)NC(=O)[C@@H](Cc3ccccc3)NC(=O)[C@H]([C@@H](C)CC)NC(=O)[C@@H](CCCN)NC2=O)[C@@H](C)CC)CS1 (stereo partly specified)	i	0.82
CCOC(=O)c1c(-c2ccc(C)cc2)csc1NC(=O)c1snnc1C	i	0.3
Cc1ccc(-n2nnc(-c3nc(-c4ccccc4C)no3)c2C)cc1Cl	i	1.5
COc1ccc2c(c1)CC(NS(=O)(=O)c1ccc(OC)c(OC)c1)CO2 (stereo unspecified)	i	-1.3
CCSc1nc2c(sc3ccccc32)c(=O)n1CCCC(=O)NC1CCCCC1	i	0.09
Cc1cc(N2CCCCC2)nc(C)n1	i	0.12
O=P(O)(O)C(O)(Cc1cccnc1)P(=O)(O)O	i	0.56&0.24
Cc1ccc(N2CC(c3nnc(NC(=O)c4c(-c5ccccc5)noc4C)s3)CC2=O)cc1C (stereo unspecified)	i	0.37
O=S(=O)(c1cc(F)ccc1F)N1CCCC1c1ccccc1F (stereo unspecified)	i	0.36
COCCNC(=O)CN1c2ccccc2NC2=C(C(=O)CC(C)(C)C2)C1c1ccccc1 (stereo unspecified)	i	-0.25
CCc1cc(C2CCCN2S(=O)(=O)CC)on1 (stereo unspecified)	i	0.23
COC(=O)c1ccc2c(=O)n(-c3ccc(OC)cc3)c(N3CCOCC3)nc2c1	i	-0.18
O=C(Cc1c(F)cccc1Cl)Nc1nc2c(s1)CN(S(=O)(=O)c1ccccc1)CC2	i	-0.01
CC(=O)Nc1ccc(-c2cc(C(=O)NC(C)c3ccccc3)c3ccccc3n2)cc1 (stereo unspecified)	i	-0.17
CC1CCCN(c2nc(C(=O)NC(C)C)cs2)C1 (stereo unspecified)	i	-0.23
CCOC(=O)c1c(S(=O)(=O)N2CCCC(C(=O)Nc3cccc(C)c3)C2)c(C)n(CC)c1C (stereo unspecified)	i	0.06
Cc1ccc(C)c(NC(=O)CSc2ncnc3nc(N4CCC(C)CC4)sc23)c1	i	-0.96
Cc1nn(-c2ccc3nncn3n2)c(C)c1CCC(=O)Nc1ccc(F)cc1F	i	1.3
CS(=O)(=O)NCc1nc2cccnc2n1Cc1ccccc1	i	-0.08
CCCN(C(=O)Nc1ccc(OC)c(OC)c1)c1nc(-c2cccc(Br)c2)cs1	i	1.3
CN(C)c1ccc(CNS(=O)(=O)c2ccccc2-c2nc(-c3ccccc3)no2)cc1	i	-1.9
CNC(=O)c1ccc(-c2nc(CN3CCN(C(=O)Nc4ccccc4)CC3)c(C)o2)cc1	i	-1.4
COc1ccc(-c2nc(CSc3nc4ccccc4n4c(C)nnc34)c(C)o2)cc1OC	i	-1.4
Cc1ccc(NC(=O)C2CCCN(c3ccc4cc(S(=O)(=O)N5CCCC5)ccc4n3)C2)cc1 (stereo unspecified)	i	0.85

Arranged by the number under Choline anaer gr early (largest number first): 6 of the compounds above.
mol,Choline anaer gr early
Cc1nn(-c2ccc3nncn3n2)c(C)c1CCC(=O)Nc1ccc(F)cc1F,1.3
Cc1ccc(NC(=O)C2CCCN(c3ccc4cc(S(=O)(=O)N5CCCC5)ccc4n3)C2)cc1 (stereo unspecified),0.85
CCOC(=O)c1c(S(=O)(=O)N2CCCC(C(=O)Nc3cccc(C)c3)C2)c(C)n(CC)c1C (stereo unspecified),0.06
O=C(Cc1c(F)cccc1Cl)Nc1nc2c(s1)CN(S(=O)(=O)c1ccccc1)CC2,-0.01
CC1CCCN(c2nc(C(=O)NC(C)C)cs2)C1 (stereo unspecified),-0.23
CNC(=O)c1ccc(-c2nc(CN3CCN(C(=O)Nc4ccccc4)CC3)c(C)o2)cc1,-1.4

More structures
SMILES	Choline anaer gr	Choline anaer gr early
Cc1cc(NC(=O)CSc2cn(CC(=O)N3CCC(C)CC3)c3ccccc23)no1	i	0.59
COc1ccc(OCc2nn3c(-c4ccoc4C)nnc3s2)cc1	i	-0.54
O=C(Oc1cccc(-n2cnnn2)c1)c1ccccc1F	i	0.22
O=c1[nH]c2ccc(NS(=O)(=O)c3ccc(C4CCCCC4)cc3)cc2[nH]1	i	-1.2
O=C(c1cccs1)N1CCN(c2nc(CN3CCCC3)cs2)CC1	i	-1.8
CCc1nc(-c2cc(S(=O)(=O)N3CCCCC3)c(C)s2)no1	i	-0.27
CC(=O)N1CCCN(C(=O)NCC2CCCO2)CC1 (stereo unspecified)	i	-0.39
O=C(NCc1ccc2c(c1)OCO2)C1CCN(c2ncc(-c3ccccc3)cn2)CC1	i	0.04
O=C(c1noc2ncnc(N3CCOCC3)c12)N1CCN(Cc2ccc3c(c2)OCO3)CC1	i	-0.68
Cc1ccc(C2=CC(c3c(F)cccc3Cl)n3nc(NS(C)(=O)=O)nc3N2)cc1 (stereo unspecified)	i	0.36
CCCC1O[C@@H]2C[C@H]3[C@@H]4CCC5=CC(=O)C=C[C@]5(C)[C@H]4[C@@H](O)C[C@]3(C)[C@]2(C(=O)CO)O1 (stereo partly specified)	i	0.03&0.62&0.45&0.79
Cc1ccc(-c2nc(C)cc(OCC(=O)Nc3ccccc3C)n2)cc1	i	2.1
O=C(c1cc(C2CC2)on1)N1CCCC1c1ccc(F)cc1 (stereo unspecified)	i	-0.69
CC(C)C(=O)NCCc1nc(-c2ccc(F)cc2)n[nH]1	i	-0.65
Cc1cc(C)c(NC(=O)C(C)Sc2nc3ncccc3o2)c(C)c1 (stereo unspecified)	i	-0.68
CC(=O)N1CCc2cc(-c3ccc(C(=O)NCCc4ccccc4)cc3)ccc21	i	-0.87
COC(=O)c1cc(=O)c2ccccc2[nH]1	i	-3
Cc1cc(=O)[nH]c(N2CCC(C)CC2)n1	i	-1.6
O=S(=O)(Nc1ccc(F)cc1)c1ccc2c(c1)-c1oncc1CO2	i	-0.9
Cc1cccc(-c2ccc(Nc3ccc(C(=O)NC(C)C)cc3)nn2)c1	i	-1.3
Cc1noc(Cn2c(=O)c3ccccc3n(CC(=O)Nc3ccc(Cl)cc3)c2=O)n1	i	1.4
C=CCn1nc2ccc(S(=O)(=O)N3CCSCC3)cn2c1=O	i	0.26
CCn1ncc(CN(C)C(=O)c2cnn3c(C(F)F)cc(-c4ccccc4)nc23)c1C	i	0.3
O=S(=O)(Cc1nc(-c2ccccc2)no1)c1ccccc1	i	-0.23
O=c1cc(-c2ccccc2)nc2n1CCN2CCCN1CCCC1	i	0
O=C(NCCCN1CCc2ccccc2C1)c1nnc(C(=O)Nc2ccccc2)s1	i	-0.11
CNC(=O)c1ccc(-c2nc3cc(NS(=O)(=O)c4cccc(Cl)c4)ccc3n2C)cc1	i	-1.5
O=C(NCCN1CCOCC1)c1ccc2ccnc(N3CCN(c4ccc(F)cc4)CC3)c2c1	i	-0.05
O=C(CSc1nc(N2CCCCC2)nc2ccccc12)Nc1ccc(Br)cc1	i	-1.1
CC(C)C(=O)NCCc1csc(C2CCN(C(=O)NC(C)(C)C)CC2)n1	i	-0.06
CCC(=O)Nc1ccc2c(c1)nc(Cn1cccn1)n2CC	i	0.46
CCCCC(=O)Nc1cnc(N2CCNCC2)c(C(=O)N(C)CCCC)c1	i	0.39
C[C@H]1O[C@@H](n2cc(F)c(=O)[nH]c2=O)[C@H](O)[C@@H]1O	i	-2.5&-3
CC(C)CNC(=O)CCn1c(=O)c2ccccc2n2c(=O)n(CC(=O)NC3CCCC3)nc12	i	-0.41
Cc1ccc(-c2noc(CS(=O)(=O)c3cc(C)c(C)cc3C)n2)cc1	i	0.99
CCC(NC(=O)Nc1ccc(C)cc1)c1c(-n2cccc2)sc2c1CCN(C)C2 (stereo unspecified)	i	-2.4
CN(C(=O)c1cc2c(=O)oc3ccccc3c2n1C)C1CCCCC1	i	-0.52
O=S(=O)(c1ccc(S(=O)(=O)N(Cc2ccccn2)CC2CCCO2)cc1)N1CCCCC1 (stereo unspecified)	i	-0.02
COc1ccc(C(=O)Nc2cccc(-c3noc(C)n3)c2)c(OC)c1	i	-0.38
Cc1ccc(C)c(-c2csc(Cc3nc(-c4ccc5c(c4)OCO5)no3)n2)c1	i	1.1
CCCS(=O)c1ccc2nc(NC(=O)OC)[nH]c2c1 (stereo unspecified)	i	0.45
NC(=O)c1cccc(-c2cccc(OC(=O)NC3CCCCC3)c2)c1	i	-0.19
Cc1ccc(C2C(=O)N(C3CCCC3)CC(=O)N2CC2COc3ccccc3O2)cc1 (stereo unspecified)	i	0.3
Cc1ccc(-c2nn3cnnc3s2)cc1	i	-1.4
O=c1ccc(-c2ccccc2Br)nn1Cc1nc(-c2ccc3c(c2)OCO3)no1	i	-1.8
Cc1ccc(-c2csc(Cc3nc(-c4ccc(Cl)cc4)no3)n2)cc1	i	0.93
CCN1CCN(C2(CNC(=O)c3oc4cc(Br)ccc4c3C)CCCCC2)CC1	i	-0.93
CC(C)Cn1c(=O)c2ccccc2n2c(=S)[nH]nc12	i	0.13
O=C(Cc1ccc(Cl)cc1)N1CCC(c2nc(-c3ccc(Cl)cc3)no2)CC1	i	0.99
CCC(SC1=Nc2ccccc2C2=NC(C)C(=O)N12)C(=O)Nc1c(C)cccc1C (stereo unspecified)	i	-1.2
Clc1ccc(-c2noc(-c3cccnc3NCC3CCCO3)n2)cc1 (stereo unspecified)	i	1.4
Cc1noc2c1C(c1ccccc1)C1=C(CC(c3ccc(Cl)cc3)CC1=O)N2 (stereo unspecified)	i	1.1
CCc1ccc(NC(=O)NC(C(=O)N2CCc3ccccc32)C(C)C)cc1 (stereo unspecified)	i	0.96
Cc1[nH]c(=O)[nH]c(=O)c1S(=O)(=O)NC1CC2CCC1C2 (stereo unspecified)	i	0.65
O=C(NCc1ccc(Br)cc1)c1nnc2ccc(-c3ccccc3)nn12	i	-0.75
COc1ccc(-n2c(C)cc(CNC(=O)NCC3CCCO3)c2C)cc1 (stereo unspecified)	i	-2.2
O=C(CCn1c(N2CCCC2)nc2ccsc2c1=O)NCc1ccc2c(c1)OCO2	i	1.4
CCOc1ccc(Oc2cc3c(cc2NC(=O)C2CC2)n(C)c(=O)c(=O)n3C)cc1	i	0.25
CC(C)(C)C1CCc2c(sc3nc(CCC(=O)N4CCOCC4)[nH]c(=O)c23)C1 (stereo unspecified)	i	-0.62
CCCS(=O)(=O)c1ncc(Cl)c(C(=O)Nc2sc3c(c2C(=O)OC)CCC3)n1	i	0.42

A stretch taken from the entries so far, as a working copy:
SMILES	Choline anaer gr	Choline anaer gr early
O=C(NCc1ccc(Br)cc1)c1nnc2ccc(-c3ccccc3)nn12	i	-0.75
COc1ccc(-n2c(C)cc(CNC(=O)NCC3CCCO3)c2C)cc1 (stereo unspecified)	i	-2.2
O=C(CCn1c(N2CCCC2)nc2ccsc2c1=O)NCc1ccc2c(c1)OCO2	i	1.4

Following part:
SMILES	Choline anaer gr	Choline anaer gr early
O=C(CSCc1cc(=O)n2[nH]cnc2n1)Nc1ccccc1Cl	i	-1.2
Cn1nc(C(=O)NCC2CCCO2)c2c1-c1cc(Cl)ccc1SC2 (stereo unspecified)	i	0.9
CCC1Cn2c(C(=O)NCCN3CCOCC3)cc3c(Cl)ccc(c32)O1 (stereo unspecified)	i	-1.5
O=C(Nc1ccc2c(c1)OCCO2)C1CCN(c2ncc(-c3ccc(F)cc3)cn2)CC1	i	-1.6
O=c1[nH]c2ccc(NCc3ccc(F)cc3)cc2[nH]1	i	-0.42
Cc1cc2oc(C(=O)Nc3nnc(C(C)C)s3)cc(=O)c2cc1C	i	-0.6
O=S(=O)(c1ccc(-c2cnc(C3CCC3)o2)s1)N1CCc2ccccc2C1	i	0.23
O=C(Cn1cnc2nc(N3CCCCC3)sc2c1=O)NC1CCCC1	i	0
COc1ccc(CCc2nn3c(-c4ccncc4)nnc3s2)cc1OC	i	-0.57
CC1=C(C(=O)Nc2ccc(C)c(Cl)c2)C2(CCN(Cc3ccccc3)CC2)OC1=O	i	-1.4
CCc1onc(C)c1C1CCCN1Cc1cccc(OC)c1OC (stereo unspecified)	i	0.22
C=CCn1c(=O)c2sc(N(CC)CC)nc2n(CC(=O)Nc2ccc3c(c2)OCO3)c1=O	i	1.6
Cc1c(CCNC(=O)c2cccc(F)c2)sc2nc(-c3ccc(F)cc3)nn12	i	0.51
COc1cccc(NC(=O)C2CCN(S(=O)(=O)c3cn(C)cn3)CC2)c1	i	-0.49
COc1cccc(NC(=O)c2nc(Nc3ccccc3)c3ccccc3n2)c1	i	1.3
O=C(NCC1CCN(Cc2ccc(Cl)cc2)CC1)c1ccc(CN2C(=O)CCn3nccc32)cc1	i	-1.9
CCOC(=O)c1[nH]c(C)c(CN(CC2CCCO2)C(=O)C2CCC2)c1C (stereo unspecified)	i	0.37
N#CC(c1ccc(Cl)cc1)c1c(Cl)cc(-n2ncc(=O)[nH]c2=O)cc1Cl (stereo unspecified)	i	-0.41&0.57
Cc1ccc(CN(C(=O)C(C)C)c2nc3nc(C)c(C)c(=O)n3[nH]2)cc1	i	0.11
OCCOCCNCc1ccc(-c2ccc(F)cc2)o1	i	0
O=C(Nc1ccc2c(c1)OCO2)c1cccc(Nc2ncc(-c3cccc(F)c3)cn2)c1	i	-0.04
CCC12CN3CC(CC)(CN(C1)C3C1CCCCC1)C2=O (stereo unspecified)	i	0.09
CC(=O)N1CCN(S(=O)(=O)c2ccc3c(c2)NC(=O)CO3)CC1	i	-0.93
CCS(=O)(=O)c1ncc(Cl)c(C(=O)Nc2ccc(S(=O)(=O)N3CCOCC3)cc2)n1	i	-1.6
CN1CCN(C(=O)C2CCCN(c3nnc4ccc(Cl)cn34)C2)CC1 (stereo unspecified)	i	0.62

An excerpt, so the mix of outcomes need not match the whole.
